# Source: PubChem
# Vaccinia inh = Vaccinia orthopox stage-specific inhibition; Vaccinia-infected cells, mCherry/Venus stage reporter fluorescence; active compounds read low; some inactives read as strong as hits; activity change (mCherry), % (concentration not given with the values); 89,000 tested, 0.01% active;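 active means mCherry past -33% and 40 or more points under the early reporter, replicates agreeing; inconclusive means past -33% without that gap or agreement; tested in A549 cells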;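 further: scaled between vehicle wells and reference inhibitor wells; 23 nL library stock went into each well; one replicate is shown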
# Vaccinia inh Venus = further read-out of Vaccinia inh, marked with its call; activity change (Venus), %; measured here: Venus reporter, other viral stage;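 negative = less Venus signal; first of two replicates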
# An asterisk follows results filed as active; u = inconclusive; x = not tested or not shown; & = joins results of further samples.
# Values in the order: Vaccinia inh | Vaccinia inh Venus
- CCS(=O)(=O)Nc1ccc2c(c1)C(=O)N(C)[C@@H]1CC[C@@H](CC(=O)OC)O[C@@H]1CO2
 : 11 | 5
- O=C(C[C@@H]1C[C@H]2c3cc(NC(=O)C4CCOCC4)ccc3O[C@H]2[C@H](CO)O1)NCc1ccccn1
 : 19 | 6
- COC(=O)C[C@H]1C[C@@H]2c3cc(NC(=O)NC4CCCCC4)ccc3O[C@@H]2[C@@H](CO)O1
 : 1 | 0
- COc1ccccc1-c1ccc(C2[C@@H]3CN(S(=O)(=O)c4ccc(F)cc4)C[C@H]2N3)cc1 (stereo partly drawn)
 : u | 15
- CCCNC(=O)Nc1ccc2c(c1)OC[C@H](C)N(Cc1ccncc1)C[C@@H](C)[C@H](OC)CN(C)C2=O
 : -4 | 5
- C[C@H]1CN([C@@H](C)CO)C(=O)c2cc(NC(=O)CCCCCC(=O)Nc3ccccc3N)ccc2O[C@H]1CN(C)Cc1ccc2c(c1)OCO2
 : 1 | -11
- CCC(=O)N1[C@@H]2c3ccc(C4=CCCCC4)c(=O)n3C[C@@H]2[C@@H](CO)[C@@H]1C(=O)NCc1ccc(F)cc1
 : -10 | 0
- COc1ccc(S(=O)(=O)N2CCCCN3[C@H](CO)[C@@H](c4ccc(-c5cccnc5)cc4)[C@@H]3C2)cc1
 : -11 | -14
- C[C@H](CO)N1C[C@H](C)[C@H](CN(C)Cc2ccc(Oc3ccccc3)cc2)Oc2ccc(NC(=O)c3ccncc3)cc2C1=O
 : 0 | -9
- COc1ccc(S(=O)(=O)Nc2ccc3c(c2)C(=O)N([C@H](C)CO)C[C@H](C)[C@H](CN(C)Cc2ccc(Cl)c(Cl)c2)OCCCC[C@H](C)O3)cc1
 : u | x
- C[C@@H]1CN([C@H](C)CO)C(=O)c2cc(N(C)C)ccc2O[C@@H]1CN(C)Cc1ccc(-c2ccccc2)cc1
 : -22 | -18
- COc1ccc(-c2ccc(C3[C@H]4CNC[C@@H]3N4C(=O)Nc3ccc4c(c3)OCO4)cc2)cc1 (stereo partly drawn)
 : 3&-16 | -6&-9
- C/C=C/c1ccc([C@H]2[C@@H](CO)N3C(=O)CN(C(=O)Nc4ccc(OC)cc4)C[C@H]23)cc1
 : -19 | -17
- O=C(C[C@H]1CC[C@H](NC(=O)c2ccc3c(c2)OCO3)[C@H](CO)O1)NCc1ccc(Cl)cc1
 : -1 | 1
- N#C[C@H]1[C@@H](c2ccc(C3=CCCCC3)cc2)[C@@H](CO)N1C(=O)C1CCOCC1
 : -1 | 1
- COCC(=O)N[C@@H]1C=C[C@@H](CC(=O)NCc2ccc(Cl)cc2)O[C@@H]1CO
 : 4 | 2
- C[C@H]1CN([C@@H](C)CO)S(=O)(=O)c2ccc(-c3cccnc3)cc2O[C@@H]1CN(C)C
 : 8 | 8
- O=C(C[C@@H]1C=C[C@H](NC(=O)c2ccncc2)[C@H](CO)O1)NCc1ccncn1
 : 16 | 8
- CCCNC(=O)N1[C@@H]2CN(C(=O)Nc3ccccc3)c3ccccc3[C@@H]2[C@@H]1CO
 : 8 | 11
- COc1ccc2c3c(n(C)c2c1)[C@@H](CO)N(C(=O)Cc1ccccc1)CC31CN(C)C1
 : -7 | -4
- O=C(C[C@H]1C[C@@H]2c3cc(NS(=O)(=O)c4ccc(F)cc4)ccc3O[C@@H]2[C@@H](CO)O1)NCc1ccc(Oc2ccccc2)cc1
 : u | x
- CC(C)NC(=O)N(C)C[C@@H]1OCCCC[C@@H](C)Oc2ccc(NC(=O)NC3CCCCC3)cc2C(=O)N([C@@H](C)CO)C[C@@H]1C
 : 13 | 8
- COc1cc(CN2CC3(CCN(C(=O)Nc4c(C)noc4C)CC3)c3c(n(C)c4cc(OC)ccc34)[C@H]2CO)cc(OC)c1
 : 1 | -2
- CCS(=O)(=O)N[C@H]1CC[C@H](CC(=O)NCc2ccc(Cl)cc2)O[C@H]1CO
 : -2 | 7
- C[C@H]1CN([C@@H](C)CO)C(=O)c2cc(C#CC3(O)CCCC3)cnc2O[C@@H]1CN(C)S(=O)(=O)c1ccccc1
 : 1 | 3
- CO[C@@H]1CN(C)C(=O)c2ccc(NC(C)=O)cc2OC[C@@H](C)N(S(C)(=O)=O)C[C@H]1C
 : 5 | 2
- COc1ccc(S(=O)(=O)Nc2cccc3c2O[C@H](CN(C)C(=O)Nc2ccc(F)cc2)[C@@H](C)CN([C@@H](C)CO)C3=O)cc1
 : 21 | 11
- Cc1ccc(CN2CC(=O)N3[C@H](CO)[C@@H](c4ccc(Br)cc4)[C@@H]3C2)cc1
 : 24 | 3
- O=C(Nc1cc(F)ccc1F)N1CCCCN2[C@@H](CO)[C@@H](c3ccc(-c4cncnc4)cc3)[C@@H]2C1
 : 3 | -4
- CO[C@H]1CN(C)C(=O)c2ccc(NC(=O)C3CCOCC3)cc2OC[C@H](C)NC[C@@H]1C
 : 0 | 5

# In the list so far, these contain fluorine:
# Values in the order: Vaccinia inh | Vaccinia inh Venus
- COc1ccccc1-c1ccc(C2[C@@H]3CN(S(=O)(=O)c4ccc(F)cc4)C[C@H]2N3)cc1 (stereo partly drawn)
 : u | 15
- CCC(=O)N1[C@@H]2c3ccc(C4=CCCCC4)c(=O)n3C[C@@H]2[C@@H](CO)[C@@H]1C(=O)NCc1ccc(F)cc1
 : -10 | 0
- O=C(C[C@H]1C[C@@H]2c3cc(NS(=O)(=O)c4ccc(F)cc4)ccc3O[C@@H]2[C@@H](CO)O1)NCc1ccc(Oc2ccccc2)cc1
 : u | x
- COc1ccc(S(=O)(=O)Nc2cccc3c2O[C@H](CN(C)C(=O)Nc2ccc(F)cc2)[C@@H](C)CN([C@@H](C)CO)C3=O)cc1
 : 21 | 11
- O=C(Nc1cc(F)ccc1F)N1CCCCN2[C@@H](CO)[C@@H](c3ccc(-c4cncnc4)cc3)[C@@H]2C1
 : 3 | -4

# (more compounds)
# Values in the order: Vaccinia inh | Vaccinia inh Venus
- N#Cc1cccc(-c2ccc(C3[C@H]4CNC[C@@H]3N4Cc3cccc(-c4ccncc4)c3)cc2)c1 (stereo partly drawn)
 : -22 | -11
- C[C@@H]1CN([C@@H](C)CO)C(=O)Cc2cc(NC(=O)Nc3cccc4ccccc34)ccc2O[C@@H]1CN(C)CC1CC1
 : -5 | 6
- COc1ccc(S(=O)(=O)N(C)C[C@H]2Oc3c(NC(=O)C4CC4)cccc3C(=O)N([C@H](C)CO)C[C@H]2C)cc1
 : 2 | 11
- CC(=O)N(C)C[C@@H]1Oc2ncc(-c3cccc(C#N)c3)cc2C(=O)N([C@@H](C)CO)C[C@H]1C
 : 29 | 4
- C[C@@H]1CN([C@H](C)CO)C(=O)c2cc(NS(=O)(=O)c3cccs3)ccc2O[C@@H]1CN(C)Cc1ccncc1
 : 6 | 1
- C[C@@H]1CN([C@@H](C)CO)C(=O)Cc2cc(NC(=O)CCN3CCOCC3)ccc2O[C@H]1CN(C)S(=O)(=O)c1ccc(F)cc1
 : -16 | -9
- COc1ccc(S(=O)(=O)Nc2ccc3c(c2)C(=O)N([C@H](C)CO)C[C@H](C)[C@@H](CN(C)C)OCCCC[C@H](C)O3)cc1
 : 30&23 | 8&9
- CC(C)C#Cc1cnc2c(c1)C(=O)N([C@@H](C)CO)C[C@@H](C)[C@H](CN(C)Cc1cncnc1)O2
 : 23 | 15
- C[C@@H]1CN([C@@H](C)CO)C(=O)c2cc(/C=C/c3ccccc3)cnc2O[C@H]1CN(C)C(=O)CN1CCOCC1
 : 4 | 2
- C[C@H](O)C#Cc1cnc2c(c1)C(=O)N([C@H](C)CO)C[C@@H](C)[C@H](CN(C)C(=O)c1ccccc1)O2
 : 12 | 3
- C[C@@H]1CCCCO[C@@H](CN(C)C(=O)NC2CCCCC2)[C@H](C)CN([C@@H](C)CO)C(=O)c2cc(NC(=O)Nc3ccc4c(c3)OCO4)ccc2O1
 : -11 | -14
- COc1ccccc1S(=O)(=O)N1C[C@H](O)COC[C@H]2O[C@@H](CC(=O)O)CC[C@@H]21
 : 3 | 1
- Cc1ccc(S(=O)(=O)Nc2ccc3c(c2)C(=O)N([C@H](C)CO)C[C@@H](C)[C@H](CN(C)C(=O)Nc2ccccc2)OCCCC[C@@H](C)O3)cc1
 : u | x
- CC(C)c1cn(CC[C@@H]2CC[C@@H](NC(=O)Nc3cc(Cl)cc(Cl)c3)[C@H](CO)O2)nn1
 : u | x
- C/C=C/c1ccc2c(c1)[C@H]1[C@H](CCN1C(=O)Cc1cccnc1)[C@H](CO)N2C
 : 5 | 8
- C[C@H](CO)N1C[C@H](C)[C@@H](CN(C)C(=O)Nc2ccccc2)OCCCC[C@H](C)Oc2ccc(NC(=O)C3CCCCC3)cc2C1=O
 : -5 | -13
- C[C@@H]1CN([C@@H](C)CO)C(=O)c2cc(C#CCC3CCCC3)cnc2O[C@H]1CN(C)Cc1ccccn1
 : u | x
- COCC(=O)Nc1ccc2c(c1)C(=O)N(C)C[C@H](OC)[C@@H](C)CN(C(=O)C1CCCC1)[C@@H](C)CO2
 : 5 | 2
- COc1cccc(S(=O)(=O)Nc2ccc3c(c2)[C@H]2C[C@@H](CC(=O)O)O[C@H](CO)[C@H]2O3)c1
 : 5 | 10
- O=C(C[C@H]1C=C[C@@H](NC(=O)Nc2ccc(C(F)(F)F)cc2)[C@H](CO)O1)NCc1cc(F)cc(F)c1
 : -6 | -10
- CC(=O)N1[C@H](C(=O)N2CCc3ccccc3C2)[C@@H](CO)[C@@H]2Cn3c(cccc3=O)[C@@H]21
 : 12 | 6
- O=C(CC1CC1)N1CC(=O)N2[C@H](CO)[C@@H](c3ccc(C#Cc4cccc(F)c4)cc3)[C@H]2C1
 : -26 | -21
- COc1cccc(S(=O)(=O)N2CCCCN3[C@@H](CO)[C@@H](c4ccc(-c5cccnc5)cc4)[C@@H]3C2)c1
 : -8 | -32
- C[C@@H]1CN([C@@H](C)CO)S(=O)(=O)c2ccc(C3=CCCCC3)cc2O[C@@H]1CN(C)C(=O)Cc1ccncc1
 : u | x
- O=C(c1cccnc1)N1CC2(C1)[C@H](c1ccccc1)[C@@H](CO)N2Cc1cccnc1
 : 3 | 1
- O=C(c1ccccc1)N1Cc2ccccc2[C@H]2OC(c3ccc(OCCCO)cc3)=N[C@@]2(CCS(=O)(=O)c2ccccc2)C1=O
 : -21 | -13
- C[C@@H]1CN([C@H](C)CO)S(=O)(=O)c2ccc(-c3ccccc3)cc2O[C@H]1CN(C)C
 : -13 | -8
- C[C@@H]1CN([C@H](C)CO)C(=O)c2cc(NC(=O)c3ccccc3)ccc2O[C@@H](C)CCCCO[C@H]1CN(C)C(=O)Cc1ccccc1
 : u | x
- C[C@H](CO)N1C[C@H](C)[C@H](CN(C)S(=O)(=O)c2ccc(F)cc2)Oc2c(NC(=O)Nc3cccc4ccccc34)cccc2C1=O
 : -26 | -18
- COc1ccc(NC(=O)Nc2ccc3c(c2)[C@H]2C[C@H](CC(=O)NCc4ccncc4)O[C@@H](CO)[C@H]2O3)cc1
 : 0 | -5
- CCC(=O)Nc1ccc2c(c1)C(=O)N(C)C[C@H](OC)[C@@H](C)CN(C(=O)c1cccnc1)[C@@H](C)CO2
 : 6 | 7
- C[C@@H]1CN([C@@H](C)CO)C(=O)c2cc(NC(=O)C3CCCCC3)ccc2O[C@@H]1CN(C)C(=O)Nc1cccc2ccccc12
 : -11 | -6
- CC(C)NC(=O)Nc1ccc2c(c1)C(=O)N([C@@H](C)CO)C[C@H](C)[C@H](CN(C)C(=O)c1ccncc1)OCCCC[C@H](C)O2
 : 19 | 10
- Cc1noc(C)c1NC(=O)Nc1ccc2c(c1)CC(=O)N([C@@H](C)CO)C[C@@H](C)[C@@H](CN(C)S(=O)(=O)c1c(C)noc1C)O2
 : 14 | 13
- Cc1noc(C)c1NC(=O)N(C)C[C@@H]1Oc2c(NC(=O)NC(C)C)cccc2C(=O)N([C@@H](C)CO)C[C@@H]1C
 : 10 | 10
- O=C(CC1CC1)N1[C@@H](CO)[C@H](c2ccccc2)C12CN(S(=O)(=O)c1ccccc1)C2
 : -1 | 1
- C[C@H](CO)N1C[C@H](C)[C@H](CN(C)CC2CCCCC2)Oc2c(NS(=O)(=O)c3ccccc3)cccc2C1=O
 : 3 | 0
- C[C@H]1CN([C@@H](C)CO)C(=O)c2cccc(NC(=O)C3CCOCC3)c2O[C@H]1CN(C)Cc1ccccc1
 : 0 | -1
- COc1ccccc1C#Cc1ccc([C@H]2[C@@H](CO)N(C(=O)C3CCCCC3)[C@H]2C#N)cc1
 : -2 | -7
- COc1cccc(CN2[C@H](CO)[C@@H]3c4ccccc4N(C(=O)c4cccnc4)C[C@@H]32)c1
 : 5 | 13
- COc1cccc(S(=O)(=O)N2C[C@@H](O)COC[C@H]3O[C@@H](CC(=O)NCCCN4CCOCC4)CC[C@@H]32)c1
 : -2 | 4
- Cc1noc(C)c1NC(=O)N(C)C[C@H]1Oc2c(NC(=O)C3CCOCC3)cccc2C(=O)N([C@@H](C)CO)C[C@H]1C
 : 3 | 6
- COc1ccc(S(=O)(=O)N2C[C@H](O)COC[C@H]3O[C@@H](CC(=O)NCc4ccc(Cl)c(Cl)c4)CC[C@@H]32)cc1
 : u | x
- C[C@H]1CN([C@@H](C)CO)C(=O)Cc2cc(NC(=O)Cn3cnnn3)ccc2O[C@@H]1CN(C)S(=O)(=O)c1cn(C)cn1
 : 2 | 4
- CCCNC(=O)Nc1ccc2c(c1)OC[C@@H](C)N(C(=O)c1ccccc1F)C[C@H](C)[C@@H](OC)CN(C)C2=O
 : -9 | -9
- COc1ccc(-c2ccc([C@@H]3[C@H](CO)N4CCCCN(C(=O)c5ccc(F)cc5)C[C@@H]34)cc2)cc1
 : u | x
- COc1ccc(CN(C)C[C@H]2Oc3c(NC(=O)C4CC4)cccc3C(=O)N([C@@H](C)CO)C[C@@H]2C)cc1
 : 23 | 29
- COCC(=O)N1[C@H](CO)[C@H](c2ccc(C3=CCCCC3)cc2)[C@@H]1C#N
 : -6 | -13
- C[C@@H]1CCCCO[C@@H](CN(C)Cc2ccc(C(=O)O)cc2)[C@@H](C)CN([C@H](C)CO)C(=O)c2cc(NS(=O)(=O)c3cccs3)ccc2O1
 : 40 | 27

# An excerpt. The share of hits here may be higher or lower than overall.
